HPGD inh: HPGD (human) dehydrogenase inhibition; P15428; purified HPGD, NADH fluorescence kinetic, PGE2 substrate; Potency, µM, inactives show top-dose activity change, negative = inhibition, usual class: inhibitors; 4.3% of 150,000 active; AID 894; active = well fitted inhibition curve with a large enough effect (not every such curve was filed as active); inconclusive = small, poorly fitted or top-dose-only effect, or another doubt; inactive = no such curve, though single readings can be large or run the other way;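 note: top concentration of the series not given in the record; plate controls included wells without enzyme; inactives centre near -10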
Target sequence (P15428 whole entry, looked up): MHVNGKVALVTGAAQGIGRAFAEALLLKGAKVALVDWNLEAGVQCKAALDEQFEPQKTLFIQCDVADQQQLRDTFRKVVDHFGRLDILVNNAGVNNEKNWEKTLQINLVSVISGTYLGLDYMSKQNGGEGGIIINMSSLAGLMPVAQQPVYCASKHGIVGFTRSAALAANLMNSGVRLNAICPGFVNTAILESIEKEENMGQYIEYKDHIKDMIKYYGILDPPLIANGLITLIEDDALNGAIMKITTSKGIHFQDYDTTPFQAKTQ
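20 nM HPGD preincubated 15 min at room temperature with compound in 50 mM Tris-HCl pH 8, 0.01% Tween 20. Started with 1 mM NAD+ and 30 uM prostaglandin E2; NADH fluorescence (360/450 nm) read 5 times over 30-s intervals, last minus first.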
* hit, by the source's call; ? = inconclusive; & = joins results of further samples. % is set by controls: 0 for no effect and ±100 for the full control effect; potency is the fitted concentration of half-maximal effect. Not all compounds are listed, so the mix of outcomes need not match the whole.

HPGD inh	Compound
1.1%	COc1ccc(CC(=O)N2N=C(C)CC2(O)C(F)(F)F)cc1 (centres undefined)
17.8µM*	O=C(NCc1ccccc1)c1cc2ccccc2o1
-0.6%	OCC#CCSc1nnc(-c2ccc(Br)cc2)o1
-9.7%	Cc1cc(/C=N/NC(=O)c2ccncc2)c(C)n1-c1ccccc1
?	CN(C)CCNC(=O)c1cc2c(=O)n(C)c3ccccc3c2n1C
-9.0%	Cc1cc(/C=C2\NC(=O)N(Cc3ccc(Cl)cc3)C2=O)c(C)n1C
-16.7%	COc1ccccc1/C=C1/SC(=O)N(CCC(=O)Nc2ccc(S(=O)(=O)Nc3nccs3)cc2)C1=O
?	O=C(c1ccco1)N1CCN(c2nc(C3CC3)nc3sc4c(c23)CCCC4)CC1
22.4µM*	O=C(Cn1cnc2c(nnn2Cc2ccccc2)c1=O)c1ccccc1
?	O=C(CSc1ccc(-c2ccco2)nn1)c1ccc(F)cc1
-28.4%	COc1ccccc1NC(=S)NC(=O)CC(C)C
-10.0%	COc1ccc(C(=O)C[n+]2cccc(C)c2)cc1

(next part)
HPGD inh	Compound
-5.6%	O=C(NCC(c1cccnc1)N1CCOCC1)c1cccc(Cl)c1 (centres undefined)
-7.9%	O=C(O)[C@@H]1CCN(Cc2oc(CO)cc(=O)c2O)C1
?	Cc1ccc(C(=O)CSc2n[nH]c(C)n2)cc1
-6.5%&-5.4%&-13.7%&-11.1%	Cc1cc(CC(=O)O)n(C)c1C(=O)c1ccc(Cl)cc1
2.5%	O=C(NCc1ccco1)C1CCN(S(=O)(=O)c2ccc(-n3cnnn3)cc2)CC1
-7.7%	CCn1c(=O)n(CCc2ccccc2)c(=O)c2c3c(sc21)CCCC3
-7.6%	O=C(NN1CCOCC1)c1cc(-c2ccc(Cl)c(Cl)c2)nc2ccccc12
-5.7%	Cc1nc2ccc(NC(=O)NCc3ccco3)cc2s1
-1.3%	CCOC(=O)Cc1nnc2c(Nc3ccc(Cl)cc3)nc3nonc3n12
?	O=C(NCC(=O)N(Cc1ccccc1)C(C(=O)NCC1CCCO1)c1ccccc1)c1cccs1 (centres undefined)
-31.6%	O=C(Nc1cccc(Cl)c1Cl)c1snnc1-c1ccccc1
-4.7%	COc1ccc(S(=O)(=O)N2CCC(NC(=O)OCc3c(Cl)cccc3Cl)CC2)cc1

Filtered by structure, those above with fluorine
HPGD inh	Compound
1.1%	COc1ccc(CC(=O)N2N=C(C)CC2(O)C(F)(F)F)cc1 (centres undefined)
?	O=C(CSc1ccc(-c2ccco2)nn1)c1ccc(F)cc1

More records
HPGD inh	Compound
-7.0%	COc1ccc(NC(=O)C(c2ccc(C)cc2)N(C)C(=O)CC2NC(=O)NC2=O)cc1 (centres undefined)
10µM*	Cc1cc(C)cc(N(CC(=O)Nc2ccccc2-c2ccccc2)S(=O)(=O)c2ccccc2)c1
-6.1%	O=C(NCc1ccncc1)c1c(F)c(F)c(F)c(F)c1F
-9.8%	COC(=O)C(Cc1ccc(OC(=O)c2ccccc2Cl)cc1)N1Cc2ccccc2C1=O (centres undefined)
-25.0%	COn1c(SCc2cccc(Cl)c2)nc2ccccc2c1=O
0.9%	C=CCNC(=S)NNC(=O)c1csc(C)c1CC
-6.7%	Nc1ccccc1NC(=O)c1ccccc1
-17.1%	O=C(COC(=O)c1ccccc1C(=O)c1ccc(Cl)c([N+](=O)[O-])c1)NC1CCCCCC1
-15.8%	CC(C)(C)NC(=O)COc1ccc(-c2ccccc2)cc1
-5.4%	CC(C)NC(=O)C1CCCN(c2nnc(-n3cccc3)s2)C1 (centres undefined)
-7.2%	O=C(NCCN1CCN(C(=O)Nc2ccccc2)CC1)Nc1ccccc1
-2.0%	O=C(c1ccco1)N1CCN(S(=O)(=O)c2ccc(Oc3ccccc3)cc2)CC1

(more compounds)
HPGD inh	Compound
-7.6%	Cc1ccc(N(CCCCN2C(=O)c3ccccc3C2=O)C(=O)c2cccc([N+](=O)[O-])c2)cc1
-9.3%	c1ccc(NCC2OCc3ccccc3CO2)cc1
-10.8%	CC(=O)c1sc(NC(=O)c2c(F)cccc2F)nc1C
-19.1%	COc1ccc2c(c1)c1c3n2CCN(C)C3=NCC1
-12.2%	C=CCc1ccc(OCC(O)CO)c(OC)c1 (centres undefined)
-2.0%	Cc1nn(C)c(C)c1NS(=O)(=O)c1ccccc1
-21.2%	NC(=O)C1CCCN(C(=O)c2ccc(Cl)cc2)C1 (centres undefined)
-25.3%	O=C(O)CCc1ccc(-c2ccccc2)o1
-5.4%	CN1C(=O)CC(c2ccco2)Sc2ccccc21 (centres undefined)
?	Cc1cc(NC(=O)COC(=O)C(Cc2ccccc2)NC(=O)c2ccco2)no1 (centres undefined)
-1.4%	CCNC(=O)CC1C(=O)N(c2ccc(F)cc2)C(=O)N1Cc1ccccn1 (centres undefined)
3.8%	C=CCNCCCCOc1ccc(OCC)cc1

Following part
HPGD inh	Compound
?	COc1ccc(-c2cc(C(F)(F)F)n3nc(C)cc3n2)cc1
-11.0%	CCOC(=O)C1=C(NC(=O)c2ccc(Br)o2)Nc2ccccc2N=C1
-0.2%	CCOC(=O)C1=C(C)NC(=O)NC1c1c(C)nn(-c2ccccc2)c1Cl (centres undefined)
-0.9%	CC1=CCC2(CO)COC(c3ccccc3O)C1C2 (centres undefined)
-10.6%	CCCC(c1nnnn1CC1CCCO1)N1CCN(c2cc(Cl)ccc2C)CC1 (centres undefined)
23.4%	COc1ccc(/C=c2\s/c(=C(/C#N)C(=O)NCc3ccco3)n(-c3ccccc3)c2=O)cc1
-18.0%	CCN(CC)S(=O)(=O)c1cccc(C(=O)OCC(=O)C23CC4CC(CC(C4)C2)C3)c1
?	Cc1cc(C)cc(OCC(=O)Nc2cccc(-c3nnc(-c4ccco4)o3)c2)c1
-2.6%	CCN(CC)Cc1c(C(=O)OC(C)C)nnn1-c1nonc1N
-7.3%	Cc1ccc(C(=O)CSc2nnc(CNc3ccc(C)cc3C)o2)cc1
-13.9%	CCCSc1nnc(-c2c[nH]c3ccccc23)n1C
-10.2%	COC(=O)[C@@]1(Cc2ccc(F)cc2)[C@H]2c3cc(C(=O)N4CCCC4)n(CCc4c[nH]c5ccccc45)c3C[C@H]2CN1C(=O)c1ccccc1

The results go on.
HPGD inh	Compound
-1.9%	CC(C)CCNc1ncnc2[nH]ncc12
?	N#Cc1c(N)sc2c1CCN(C(=O)OCc1ccccc1)C2
-6.7%	CCOC(=O)c1c(C)[nH]c(C)c1C(=O)COC(=O)CNC(=O)c1ccc(OCC)cc1
-20.1%	Nc1nc2n(n1)C(c1c(F)cccc1Cl)CC(c1ccc(F)cc1)N2 (centres undefined)
-24.1%	CN(C)c1ccc(/C=C(\C#N)C(=O)NCc2ccco2)cc1
-14.9%	CCCCNc1nc2c(c(=O)[nH]c(=O)n2C)n1CCOc1ccccc1
-21.6%	Cc1nn(C)cc1CN(C)C(=O)c1sc2cccc(Cl)c2c1Cl
-17.6%	Cc1sc(NC(=O)c2ccccc2)c(C(c2ccccn2)N2CCN(CCO)CC2)c1C (centres undefined)
-6.6%	CC(C)C(N)C(=O)OCCOCn1cnc2c(=O)[nH]c(N)nc21 (centres undefined)
-10.5%	Cc1cccc(NC(=O)C2CCN(S(=O)(=O)c3cccc4cccnc34)CC2)n1
-6.6%	COc1ccc(/C(C)=N/NC(=O)C2C3CCCCC32)c(OC)c1 (centres undefined)
?	CCOC(=O)COc1ccc2c(c1)C(=O)CC(C)(c1cccnc1)O2 (centres undefined)

Reprinted at random: three compounds from above.
HPGD inh	Compound
-6.6%	CC(C)C(N)C(=O)OCCOCn1cnc2c(=O)[nH]c(N)nc21 (centres undefined)
-6.6%	COc1ccc(/C(C)=N/NC(=O)C2C3CCCCC32)c(OC)c1 (centres undefined)
-14.9%	CCCCNc1nc2c(c(=O)[nH]c(=O)n2C)n1CCOc1ccccc1

Continued.
HPGD inh	Compound
28.2µM*	O=C(O)CCCCCNc1ccc2nsnc2c1[N+](=O)[O-]
-10.9%	CNc1nc(C)c(C(=O)c2ccc(Cl)cc2)s1
-6.7%	CCc1ccc(OCCNC(=O)c2ccc(S(=O)(=O)N(C)C)cc2)cc1
?	Cc1cc(C)nc(-n2ncc3c2CC(c2ccccc2C)CC3=O)n1 (centres undefined)
-0.8%	COC(=O)C(C)NC(=O)C1CCCN1S(=O)(=O)c1cc(C)c(Cl)cc1C (centres undefined)
-26.2%	CCCC1CCC(C2=N/C(=C\c3ccc(OC)c(OC)c3)C(=O)O2)CC1 (centres undefined)
?	COc1cc(/C=C(\C#N)c2nc3c(s2)CCCC3)ccc1O
-17.1%	CCOC(=O)c1c(NC(=O)COc2ncnc3ccccc23)sc(C)c1CC
-15.7%	CCCCC1=CC2=CC(=O)C(C)(OC(=O)CC)C(=O)C2=CN1CCN1CCOCC1 (centres undefined)
-11.3%	CCOC(=O)c1cc(C#N)c(SCc2ccc(C#N)cc2)nc1C
-11.8%	COc1ccc(C(=O)c2ccc(OC)c3cccc(O)c23)cc1OC
-5.6%	COc1ccc(CC(=O)NCCN2CCCC2)cc1

Further entries.
HPGD inh	Compound
-26.0%	CCCCCCC(=O)N=Nc1c(O)[nH]c2ccc([N+](=O)[O-])cc12
-9.9%	COc1ccc(N2CCN(Cc3cc(=O)oc4ccc5ccccc5c34)CC2)cc1
15.8µM*	CCOC(=O)CNS(=O)(=O)c1cc(-c2nn(C)c(=O)c3ccccc23)ccc1C
-15.3%	N=C(CC(=O)Nc1ccccn1)c1ccccc1
-29.4%	Cc1ccc2oc(-c3cccc(NC(=S)NC(=O)/C=C/c4ccco4)c3)nc2c1
-18.8%	CC(C)NC(=O)c1onc(CSc2cccc(F)c2)c1C(=O)O
-6.8%	CCc1cccc(C)c1NC(=O)COC(=O)c1ccc2c(c1)S(=O)(=O)c1ccccc1C2=O
-4.8%	COc1ccc(CN(C)c2ncnc(N)n2)cc1
-14.5%	COC(=O)c1cnn(C(=O)c2ccccc2Br)c1N
-23.2%	CCN(CC)S(=O)(=O)c1cccc(-c2nnc(-c3ccc(C)cc3)o2)c1
-22.2%	CC(Sc1nc(-c2ccccc2)cc(C(F)(F)F)n1)C(=O)Nc1sc2c(c1C#N)CCC2 (centres undefined)
-13.1%	Cc1ccc(-c2noc(CCC(=O)N3CCCc4ccccc43)n2)cc1

Four entries already listed, sorted by the number in HPGD inh, highest first:
HPGD inh	Compound
-4.8%	COc1ccc(CN(C)c2ncnc(N)n2)cc1
-13.1%	Cc1ccc(-c2noc(CCC(=O)N3CCCc4ccccc43)n2)cc1
-15.3%	N=C(CC(=O)Nc1ccccn1)c1ccccc1
-26.0%	CCCCCCC(=O)N=Nc1c(O)[nH]c2ccc([N+](=O)[O-])cc12

The list continues:
HPGD inh	Compound
-13.0%	O=C1CN(S(=O)(=O)c2ccccc2)CC(=O)N1CCc1ccccc1
-3.5%	CCOc1ccc(NC(=O)C2C3C=CC4(CN(C(C(=O)OC)C(C)C)C(=O)C24)O3)cc1 (centres undefined)
-39.7%	COc1ccccc1CNC(=O)c1ccc(-c2ccccc2Cl)o1
-11.8%	COc1ccc(OC)c(N2C(=O)CC(C(C)c3ccccc3)C2=O)c1 (centres undefined)
-4.7%	CC(C)(C)NC(=O)c1cc([N+](=O)[O-])ccc1N1CCCCC1
?	Cc1ccccc1N(CC(=O)NCC1CCCO1)C(=O)C1(C)CC(=O)N=C2C=CC=CN21 (centres undefined)
-15.4%	CCN(CC)C(=O)CSc1ncnc2c1nnn2-c1ccc(OC)cc1
-10.6%	CCOC(=O)c1ccc(NC(=O)C(C)N2C(=O)c3ccccc3C2=O)cc1 (centres undefined)
-18.2%	CSc1ccccc1NC(=O)c1cnc2scc(C)n2c1=O
-6.3%	CCCCn1c(SCC(=O)N2CCCCC2C)nc2cc(S(N)(=O)=O)ccc21 (centres undefined)
?	COc1ccc(CNC(=O)CSc2nc(-c3ccccc3)cc(-c3cccs3)c2C#N)cc1
-6.0%	CC(C)(C)C(=O)N1CCN(c2c(Cl)cccc2[N+](=O)[O-])CC1

Further records.
HPGD inh	Compound
-13.9%	O=C(NCc1ccccc1)c1cc(-c2ccco2)on1
?	O=C(CC(NC(=O)C(F)(F)F)c1ccccc1)Nc1nnc(CCc2ccccc2)s1 (centres undefined)
-6.0%	COc1ccc(CNC(=O)NC(C)(C)c2cccc(C(C)(C)NC(=O)NCc3ccc(OC)cc3)c2)cc1
-5.5%	CCOc1ccc(N(CC(=O)NC2CCCC2)C(=O)CCC(=O)Nc2ccccn2)cc1
-15.3%	Cc1noc(C)c1S(=O)(=O)N1CCCC(C(=O)N2CCN(C3CCCCC3)CC2)C1 (centres undefined)
-19.4%	O=C(Nc1ccc(N2CCCCC2)cc1)c1cccnc1Cl
20µM*	S=C(NC1CCCCC1)c1ccc2c(c1)OCO2
-14.8%	CNC(=O)[C@H](C)/C=C(\c1cccnc1)C(NC(=O)OCc1ccccc1)c1ccc(C(=O)OC)cc1 (some centres undefined)
-17.2%	CC(Sc1nnnn1-c1ccc(Cl)cc1)C(=O)NCC(=O)Nc1ccc(F)c(F)c1F (centres undefined)
-10.9%	COC(=O)C1=C(C)N(Cc2ccccc2)C(=O)N[C@H]1c1ccc(Br)cc1
-20.9%	CC(=O)Nc1ccccc1-c1nn[nH]n1
-8.8%	Cc1noc(C)c1S(=O)(=O)N1CCC(C(=O)Nc2ccc(OC(F)(F)F)cc2)CC1

The listing continues:
HPGD inh	Compound
-14.4%	CC(=O)c1nnn(-c2nc(N3CCCC3)nc(N(c3ccccc3)c3ccccc3)n2)c1C
-27.8%	CCOc1ccc(-c2nnc(N(CC)C(=O)C3CCC3)s2)cc1
?	CC(C)c1cccc2nc3c(c(C(C)(C)C)c12)Cn1c-3cccc1=O
-8.9%	O=C(OCc1cc(-c2ccccc2)no1)c1ccc2ccccc2n1
-13.6%	CCOc1ccccc1C(=O)Nc1ccccc1C(N)=O
-5.1%	N#C/C(=C\c1cccnc1)C(=O)Nc1ccccc1
-28.4%	Cc1ccc(Nc2nc(N)nc(CSc3nc4ccccc4s3)n2)cc1

Compound activity (PubChem)
